Six1-Eya2 blk = inhibitors of human Six1/Eya2 interaction. activity change, % (test concentration not listed). 360,000 tested, 0.56% active. Q15475+O00167. AlphaScreen GST-Six1/His-Eya2 binding, biochemical; stronger effect = lower value; control for the full effect not named in the record; in the data active = activity change below about -65%; inconclusive = about -30% to -65%; inactive = above about -30%; also: % is scaled to controls: 0 for no effect and ±100 for the full control effect; compound concentration not given in the record
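Homogeneous AlphaScreen proximity assay pairing GST-Six1 with His-tagged Eya2 (added as 5X mix: 250 nM and 500 nM) in 50 mM Tris pH 8.0, 300 mM NaCl, 1 mM TCEP. Glutathione donor and nickel acceptor beads; 1 h, 37 °C, dark.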
TRPML1 blocker = blocks the human TRPML1 channel; Q9GZU1; TRPML1-inducible cells, Ca2+ dye fluorescence, FDSS; stronger effect = lower value; inhibition of EC80 agonist-evoked calcium signal; activity change, negative = inhibition, % (test concentration not listed); 390,000 tested, 0.02% active; in the data active means activity change below about -50%; inconclusive means about -30% to -50%; inactive means above about -30%;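 also: stimulus is agonist 54-4 at its EC80 concentration; % is scaled to controls: 0 for no effect and ±100 for the full control effect; compound concentration not given in the record; the text of the record puts the active cut at -80%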
Target sequence (Q9GZU1 whole entry, looked up): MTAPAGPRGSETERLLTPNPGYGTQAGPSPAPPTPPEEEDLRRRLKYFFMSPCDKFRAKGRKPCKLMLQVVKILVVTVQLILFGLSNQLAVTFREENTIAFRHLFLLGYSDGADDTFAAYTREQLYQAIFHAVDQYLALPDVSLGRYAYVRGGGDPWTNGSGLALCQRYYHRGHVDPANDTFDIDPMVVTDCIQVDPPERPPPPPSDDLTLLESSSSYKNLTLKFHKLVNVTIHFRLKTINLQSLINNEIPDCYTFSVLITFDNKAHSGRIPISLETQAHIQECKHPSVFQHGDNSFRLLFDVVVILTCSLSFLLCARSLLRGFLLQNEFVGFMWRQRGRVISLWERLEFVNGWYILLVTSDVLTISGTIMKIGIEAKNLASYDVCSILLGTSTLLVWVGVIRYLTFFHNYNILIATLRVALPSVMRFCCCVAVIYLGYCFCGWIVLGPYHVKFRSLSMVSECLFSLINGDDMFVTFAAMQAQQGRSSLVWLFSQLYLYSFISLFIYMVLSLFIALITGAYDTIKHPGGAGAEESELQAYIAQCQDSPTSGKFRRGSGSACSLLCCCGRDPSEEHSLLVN
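TRPML1-DL cells, Tet-induced overnight (~16 h, 37 °C) at 1,500 cells/well, were loaded with Ca8 no-wash dye plus quencher for 45-90 min at room temperature. Compounds were pinned during FDSS kinetic reading; agonist 54-4 at EC80 (4 uM final) then added.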
PINK1 expr mod = changes PINK1 expression; Potency, µM (doses to about 76.6 µM), for inactives: at the highest dose activation (PINK1 increase), actives largely listed as activators; AID 624263; PINK1 immunofluorescence, high-content cytometry, 24 h; 410,000 tested, 0.2% active; active = well fitted activation curve with a large enough effect; inconclusive = small, poorly fitted or top-dose-only effect; inactive = flat fitted curve, though single readings scatter; cell line not stated here;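 also: potency is read from the fitted curve at half-maximal effect; % of control where 0% means no effect; nearly all actives have a fitted effect of over 65% in size; a mitochondrial uncoupler was the plate control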
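Cells are seeded, rested 12 hours, then given compound at five concentrations or DMSO for 24 hours. After fixation, blocking and antibody staining, PINK1 amount and mitochondrial localization are scored; CCCP serves as control.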
TRPML1 agonist = agonists of human TRPML1 channel; Q9GZU1; TRPML1-expressing cells, Ca2+ dye fluorescence, FDSS; host cell line not named in the record; reference of the full effect not given here; activation, % (test concentration not listed); 410,000 tested, 0.12% active; in the data active = activation above about 50%; inconclusive = about 30% to 50%; inactive = below about 30%; also: 0% is about no effect; the text of the record puts the active cut at 80%
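TRPML1-DL cells, Tet-induced overnight (~16 h, 37 degrees C), loaded 45-90 min at room temperature with Ca8 no-wash calcium dye plus quencher. FDSS fluorescence: 10 s baseline, compound pin-transfer, 110 s agonist read, then EC80 54-4 (4uM final) and 110 s antagonist read.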
D2 ag = human D2 receptor agonism in beta-arrestin assay. P14416. DiscoveRx PathHunter D2 beta-arrestin, luminescence, 90 min; 100% = 57 uM dopamine signal. activation, % (concentration not given with the values). 360,000 tested, 0.084% active. AID 624465; in the data active = activation above about 40%; inconclusive = about 15% to 40%; inactive = below about 15%; also: compound concentration not given in the record; the text of the record calls up to 30% inactive
Target sequence (P14416 whole entry, looked up): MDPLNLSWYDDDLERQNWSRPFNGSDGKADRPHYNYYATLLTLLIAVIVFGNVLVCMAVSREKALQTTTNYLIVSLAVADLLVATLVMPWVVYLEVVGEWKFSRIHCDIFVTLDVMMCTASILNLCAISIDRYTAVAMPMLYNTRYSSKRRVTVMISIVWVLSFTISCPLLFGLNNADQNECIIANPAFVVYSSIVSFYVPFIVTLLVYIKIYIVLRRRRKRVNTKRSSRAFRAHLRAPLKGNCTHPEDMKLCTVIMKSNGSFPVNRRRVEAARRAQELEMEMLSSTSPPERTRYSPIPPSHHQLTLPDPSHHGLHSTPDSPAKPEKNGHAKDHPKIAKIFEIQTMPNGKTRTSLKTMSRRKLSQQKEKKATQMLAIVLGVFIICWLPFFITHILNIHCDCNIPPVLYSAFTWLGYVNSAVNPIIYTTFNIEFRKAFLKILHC
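DiscoveRx PathHunter D2 beta-arrestin cells (2,100/well) attached overnight, then compound-stimulated 90 min at 37 C in HBSS/10 mM HEPES/0.1% Tween-20 buffer; beta-galactosidase complementation read by luminescence after 1 h at ambient temperature. Dopamine 57 uM final (EC100) as control.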
CtBP-E1A inh = CtBP/E1A binding inhibition. AlphaScreen GST-E1A/His-CtBP binding, 1536-well; stronger effect = lower value; control for the full effect not named in the record. activity change, % (test concentration not listed). 340,000 tested, 0.49% active; in the data active means activity change below about -65%; inconclusive means about -30% to -65%; inactive means above about -30%; also: % is scaled to controls: 0 for no effect and ±100 for the full control effect; compound concentration not given in the record
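In 5 uL wells, 23 nL compound meets equimolar GST-E1A and His-CtBP (5X stock 125 nM each) for 2 h, 37 °C. Beads (5X, 50 ug/mL) then 1 h, 37 °C, dark.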
The depositor's hits bear a star.

Start of the listing, in advance:
Results for O=C(NCc1ccc2c(c1)OCO2)c1sccc1Br ?
Six1-Eya2 blk: -12; TRPML1 blocker: 10; PINK1 expr mod: 0.3%; TRPML1 agonist: 1.2; D2 ag: 0.1; CtBP-E1A inh: 3

What do the screens show for `COc1ccc(CCC(=O)NCCNC(=O)CCc2ccc(OC)cc2)cc1`?
Six1-Eya2 blk: 6; PINK1 expr mod: 1.0%; D2 ag: -1.7

The listing, previewed entries included:
Results for O=C(NCc1ccc2c(c1)OCO2)c1sccc1Br ?
Six1-Eya2 blk: -12; TRPML1 blocker: 10; PINK1 expr mod: 0.3%; TRPML1 agonist: 1.2; D2 ag: 0.1; CtBP-E1A inh: 3

What do the screens show for `COc1ccc(CCC(=O)NCCNC(=O)CCc2ccc(OC)cc2)cc1`?
Six1-Eya2 blk: 6; PINK1 expr mod: 1.0%; D2 ag: -1.7

How did COc1ccccc1NS(=O)(=O)c1ccc2oc(SC3CCOC3=O)nc2c1 (configuration not stated) do in these assays?
Six1-Eya2 blk: -8; TRPML1 blocker: 15; PINK1 expr mod: 5.7%; TRPML1 agonist: -1.3; D2 ag: -2.7; CtBP-E1A inh: 4

What do the screens show for `Fc1ccc(NC(=S)NC2CC3CCC(C2)N3Cc2ccco2)cc1` (configuration not stated)?
Six1-Eya2 blk: -2; TRPML1 blocker: -14; PINK1 expr mod: 3.3%; TRPML1 agonist: -0.6; D2 ag: -3.1; CtBP-E1A inh: 6

How did Cc1ccc(C)c2nc(Cl)c(C3NC(=O)c4ccccc4N3)cc12 (configuration not stated) do in these assays?
Six1-Eya2 blk: -2; TRPML1 blocker: 33; PINK1 expr mod: 11%; TRPML1 agonist: -0.3; D2 ag: -3.7; CtBP-E1A inh: 10

What do the screens show for `Cc1cc(C)nc(Nc2n[nH]c(-c3ccccc3Cl)n2)n1`?
Six1-Eya2 blk: 1; TRPML1 blocker: 11; PINK1 expr mod: 0.3%; TRPML1 agonist: 2.9; D2 ag: 3.0

How did CCOC(=O)C1(Cc2cccc(OC)c2)CCN(Cc2ccc3c(c2)OCCO3)CC1 do in these assays?
Six1-Eya2 blk: -15; TRPML1 blocker: 3; PINK1 expr mod: 3.0%; TRPML1 agonist: 1.0; D2 ag: -0.3; CtBP-E1A inh: -5

Results for COc1ccc(N2CCN(c3nc(Cl)nc(N4CCOCC4)n3)CC2)cc1 ?
Six1-Eya2 blk: 1; TRPML1 blocker: 59; PINK1 expr mod: 0.7%; TRPML1 agonist: 1.9; D2 ag: -3.9; CtBP-E1A inh: -3

Results for Cc1cccc(S(=O)(=O)NNC(=O)c2cc(-c3ccc(F)cc3)nc3ccccc23)c1 ?
Six1-Eya2 blk: 7; TRPML1 blocker: -6; PINK1 expr mod: -0.5%; TRPML1 agonist: 1.4; D2 ag: -0.9

Results for Cn1nc(C(C)(C)C)cc1N1C(=O)CCC1(C)C(=O)Nc1ccc2ccccc2c1 (configuration not stated) ?
Six1-Eya2 blk: 4; PINK1 expr mod: 1.1%; TRPML1 agonist: 3.3; D2 ag: -1.1; CtBP-E1A inh: 11

Results for CC(C)(C)c1csc(NC(=O)c2ccc3nccnc3c2)n1 ?
Six1-Eya2 blk: -4; TRPML1 blocker: 55; PINK1 expr mod: 6.4%; TRPML1 agonist: -0.5; D2 ag: -3.9; CtBP-E1A inh: 0

Results for Cc1ccc(Cn2c(CN3CCC(C(=O)NCc4cccnc4)CC3)cc3ccccc32)cc1 ?
TRPML1 blocker: -10; PINK1 expr mod: 1.0%; TRPML1 agonist: 1.5

How did CN(C)/C=N/c1nccc(-c2cccs2)n1 do in these assays?
Six1-Eya2 blk: 21; TRPML1 blocker: -3; PINK1 expr mod: -1.4%; TRPML1 agonist: 0.0; D2 ag: 1.9; CtBP-E1A inh: 17

Results for CC(=O)Nc1ccc(NC(=O)c2oc3cc(C)c(C)cc3c2C)cc1 ?
Six1-Eya2 blk: 6; TRPML1 blocker: -12; PINK1 expr mod: 11%; TRPML1 agonist: -0.1; D2 ag: -2.5; CtBP-E1A inh: -20

Results for O=C(NC1CC1)c1sc2ccccc2c1Cl ?
Six1-Eya2 blk: 2; TRPML1 blocker: -22; PINK1 expr mod: -0.7%; TRPML1 agonist: 0.9; D2 ag: -2.3; CtBP-E1A inh: 6

Results for Cc1noc(C)c1S(=O)(=O)N1CCC(C(=O)N2CCN(c3ccc(F)cc3)CC2)CC1 ?
Six1-Eya2 blk: 0; TRPML1 blocker: -16; PINK1 expr mod: 2.7%; TRPML1 agonist: -0.7; D2 ag: -1.1; CtBP-E1A inh: 6

How did COCCN1C[C@@H](CO)O[C@@H](n2cnc3c(N4CCCC4)ncnc32)C1 do in these assays?
Six1-Eya2 blk: -1; PINK1 expr mod: 0.1%; TRPML1 agonist: -0.1; D2 ag: 0.7; CtBP-E1A inh: 5

What do the screens show for `O=C(COc1ccc([N+](=O)[O-])cc1)NNC(=O)Nc1ccccc1F`?
Six1-Eya2 blk: 4; TRPML1 blocker: -5; PINK1 expr mod: 0.2%; TRPML1 agonist: 0.0; D2 ag: -2.9; CtBP-E1A inh: -3

How did Cc1ccc2c(c1)c1c(n2CC(O)CNC(C)(C)C)CCCC1 (configuration not stated) do in these assays?
Six1-Eya2 blk: inconclusive; TRPML1 blocker: 14; PINK1 expr mod: 11%; TRPML1 agonist: 0.6; D2 ag: -2.1; CtBP-E1A inh: inconclusive

What do the screens show for `O=C(Nc1cccc(S(=O)(=O)N2CCCCC2)c1)c1ccc(N2CCCC2=O)cc1`?
Six1-Eya2 blk: -1; TRPML1 blocker: 0; PINK1 expr mod: 9.7%; TRPML1 agonist: 1.5; D2 ag: -2.2; CtBP-E1A inh: 2

How did CNC(=S)Nc1cccc(-c2cnc3ccccc3n2)c1 do in these assays?
Six1-Eya2 blk: 8; TRPML1 blocker: -3; PINK1 expr mod: -1.2%; TRPML1 agonist: 1.6; D2 ag: 0.4; CtBP-E1A inh: 10

What do the screens show for `CCOC1=C2[C@@H](CN(S(=O)(=O)c3ccc(C)cc3)[C@H]2c2ccccc2Cl)[C@H]2C(=O)N(C(C)(C)C)C(=O)[C@H]2C1`?
Six1-Eya2 blk: 5; PINK1 expr mod: 1.1%; TRPML1 agonist: -0.1; D2 ag: -4.2; CtBP-E1A inh: -2

Results for COc1cccc(NC(=O)CSc2nnc(C)s2)c1 ?
Six1-Eya2 blk: 3; TRPML1 blocker: 15; PINK1 expr mod: -3.6%; TRPML1 agonist: -1.3; D2 ag: -1.4; CtBP-E1A inh: 3

How did O=C(CCN1C(=O)C2C3CCC(C3)C2C1=O)Nc1ccccc1C(F)(F)F (configuration not stated) do in these assays?
Six1-Eya2 blk: 0; TRPML1 blocker: 36; PINK1 expr mod: 1.8%; TRPML1 agonist: 0.4; D2 ag: -0.9

What do the screens show for `Cc1noc(C)c1S(=O)(=O)N(CC(=O)N1CCc2ccccc21)c1ccc(C(C)C)cc1`?
Six1-Eya2 blk: 4; TRPML1 blocker: -13; PINK1 expr mod: 0.2%; TRPML1 agonist: 0.2; D2 ag: -3.8; CtBP-E1A inh: 6

Results for Cn1nnnc1Sc1ccc([N+](=O)[O-])cc1Cl ?
Six1-Eya2 blk: 17; TRPML1 blocker: 5; PINK1 expr mod: 1.8%; TRPML1 agonist: -0.5; D2 ag: 7.2; CtBP-E1A inh: 19

Results for O=C(Nc1ccc(F)cc1)c1ccc2[nH]c(=O)c(=O)[nH]c2c1 ?
Six1-Eya2 blk: inconclusive; TRPML1 blocker: -3; PINK1 expr mod: 1.4%; TRPML1 agonist: 0.4; D2 ag: -0.2

How did Cc1ccc(S(=O)(=O)N2CCC(C(N)=O)CC2)cc1[N+](=O)[O-] do in these assays?
Six1-Eya2 blk: 3; TRPML1 blocker: -3; PINK1 expr mod: 0.0%; TRPML1 agonist: -0.1; D2 ag: 0.4; CtBP-E1A inh: 4

What do the screens show for `C=CCN(c1ccccc1)S(=O)(=O)c1cccc(C(=O)OCC(=O)NC2CC2)c1`?
Six1-Eya2 blk: -5; TRPML1 blocker: 15; PINK1 expr mod: -0.6%; TRPML1 agonist: -0.7; D2 ag: -3.8; CtBP-E1A inh: 5

How did O=C1NC(c2ccncc2)C(C(=O)c2cccs2)C(O)(C(F)(F)F)N1 (configuration not stated) do in these assays?
Six1-Eya2 blk: 5; TRPML1 blocker: 0; TRPML1 agonist: -0.4; D2 ag: -2.0; CtBP-E1A inh: 3

What do the screens show for `CCc1ccc(NC(=O)C2CCN(C(=O)[C@@H]3Cc4ccccc4CN3)CC2)cc1`?
Six1-Eya2 blk: 16; TRPML1 blocker: -3; PINK1 expr mod: -0.3%; TRPML1 agonist: 0.0; D2 ag: -7.9; CtBP-E1A inh: 20

What do the screens show for `CCOC(=O)c1[nH]c(C)c(C(=O)OCC(=O)NC2CCS(=O)(=O)C2)c1C` (configuration not stated)?
Six1-Eya2 blk: 12; TRPML1 blocker: -10; PINK1 expr mod: -0.7%; TRPML1 agonist: 1.7; D2 ag: -2.6; CtBP-E1A inh: 1

Results for NS(=O)(=O)c1ccc(NC(=O)COC(=O)c2cc([N+](=O)[O-])ccc2Cl)cc1 ?
Six1-Eya2 blk: 1; TRPML1 blocker: -4; PINK1 expr mod: 0.2%; TRPML1 agonist: -0.4; D2 ag: 5.9; CtBP-E1A inh: -1

Results for CCOC(=O)C1=C(C)NC(C)=C(C(=O)OCC)C1C(=O)OCC(=O)Nc1ccc(NC(C)=O)cc1 ?
Six1-Eya2 blk: 25; TRPML1 blocker: 3; PINK1 expr mod: 0.7%; TRPML1 agonist: 0.0; D2 ag: -2.3; CtBP-E1A inh: 9

What do the screens show for `O=C(NC(C1CC1)C1CC1)C1CCC(=O)N(CCCN2CCCC2=O)C1` (configuration not stated)?
Six1-Eya2 blk: 4; TRPML1 blocker: -4; PINK1 expr mod: 1.7%; TRPML1 agonist: 0.0; D2 ag: -1.0

How did Cc1ccc(N2C(=O)C(NC(=O)c3c(F)cccc3F)(C(F)(F)F)C3=C2CC(C)(C)CC3=O)cc1 (configuration not stated) do in these assays?
Six1-Eya2 blk: -17; TRPML1 blocker: -8; PINK1 expr mod: 3.7%; TRPML1 agonist: -0.2; D2 ag: -4.7; CtBP-E1A inh: 1

What do the screens show for `O=C(N/N=C/c1cccnc1)c1cccc(F)c1`?
Six1-Eya2 blk: -19; TRPML1 blocker: 13; PINK1 expr mod: 0.1%; TRPML1 agonist: -1.3; D2 ag: -0.9; CtBP-E1A inh: 4

Results for CC(C(=O)N1CCc2ccccc21)N1CCN(c2ccccn2)CC1 (configuration not stated) ?
Six1-Eya2 blk: -5; TRPML1 blocker: 4; PINK1 expr mod: 2.0%; TRPML1 agonist: 0.3; D2 ag: -6.7; CtBP-E1A inh: 34

Results for COc1ccccc1NC(=O)CCNC(=O)c1ccc(C)cc1 ?
Six1-Eya2 blk: 1; TRPML1 blocker: 6; PINK1 expr mod: 3.3%; TRPML1 agonist: -0.1; D2 ag: 2.7; CtBP-E1A inh: -2

What do the screens show for `Cc1ccc(-c2nc(C)c(CCNC(=O)c3ccco3)s2)cc1`?
TRPML1 blocker: -1; PINK1 expr mod: 0.2%; TRPML1 agonist: 1.4

High-throughput results: PubChem, National Center for Advancing Translational Sciences (NCATS)
